Screening data (PubChem BioAssay)
Vaccinia inh: Vaccinia orthopox stage-specific inhibition; Vaccinia-infected cells, mCherry/Venus stage reporter fluorescence; stronger effect = lower value; some inactives read as strong as hits; 89,000 tested, 0.01% active; activity change (mCherry), % (concentration not given with the values);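 active = mCherry past -33% and 40 or more points under the early reporter, replicates agreeing; inconclusive = past -33% without that gap or agreement; tested in A549 cells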;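 also: scaled between vehicle wells and reference inhibitor wells; 23 nL library stock went into each well; one replicate is shown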
Vaccinia inh Venus: further read-out of Vaccinia inh, marked with its call; activity change (Venus), %; measured here: Venus reporter, other viral stage;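 negative = less Venus signal; first of two replicates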
* marks the source's active call; other numbers are inactive results; ? = inconclusive; . = not tested or not shown.

cpd | SMILES | Vaccinia inh | Vaccinia inh Venus
1 | C[C@@H]1CN([C@@H](C)CO)C(=O)c2cc(NC(=O)Cc3ccccc3)ccc2O[C@@H](C)CCCCO[C@@H]1CN(C)CC1CCCCC1 | -34 | -35
2 | CCCNC(=O)[C@@H]1[C@@H](CO)[C@@H]2Cn3c(ccc(-c4ccccc4)c3=O)[C@@H]2N1CC | 17 | 13
3 | O=C(NCc1ccccc1)[C@H]1[C@H](CO)[C@H]2Cn3c(cccc3=O)[C@H]2N1Cc1ccccc1F | 17 | 12
4 | C[C@@H]1CN([C@@H](C)CO)C(=O)c2cc(NS(=O)(=O)c3cn(C)cn3)ccc2O[C@@H]1CN(C)CC1CCCCC1 | 8 | 7
5 | COC(=O)[C@H]1[C@H](CO)[C@H]2Cn3c(cccc3=O)[C@H]2N1CC1CCCC1 | 2 | 54
6 | COCC(=O)N1CC2(C1)[C@H](c1ccc(C3=CCCC3)cc1)[C@H](CO)N2C(=O)COC | 1 | 4
7 | CN1CCN(C(=O)C[C@@H]2CC[C@H]3[C@@H](COC[C@@H](O)CN3S(=O)(=O)c3cccc(Cl)c3)O2)CC1 | 11 | 0
8 | Cn1cnc(S(=O)(=O)N2CCCCN3[C@H](C2)[C@@H](c2ccc(-c4ccccc4F)cc2)[C@@H]3CO)c1 | 22 | 9
9 | COc1ccc(-c2cnc3c(c2)C(=O)N([C@H](C)CO)C[C@H](C)[C@@H](CN(C)S(C)(=O)=O)O3)cc1 | 16 | 7
10 | COc1ccc(S(=O)(=O)Nc2ccc3c(c2)C(=O)N([C@H](C)CO)C[C@H](C)[C@@H](CN(C)S(=O)(=O)c2ccccc2)OCCCC[C@H](C)O3)cc1 | ? | .
11 | CC(C)CC#Cc1cnc2c(c1)C(=O)N([C@H](C)CO)C[C@@H](C)[C@H](CN(C)Cc1ccc3c(c1)OCO3)O2 | ? | .
12 | C[C@@H]1CN([C@@H](C)CO)C(=O)c2cc(NC(=O)Cc3ccccc3)ccc2O[C@@H](C)CCCCO[C@@H]1CN(C)C(=O)Cc1ccccc1 | -3 | -4
13 | CCCCNC(=O)C(COCc1ccccc1)OC(=O)c1ccccc1 (stereo not drawn) | 9 | 0
14 | CC(C)NC(=O)N[C@@H]1CC[C@@H](CCNS(=O)(=O)c2ccc(Cl)cc2)O[C@@H]1CO | 10 | 9
15 | COc1ccc(S(=O)(=O)Nc2ccc3c(c2)OC[C@H](C)NC[C@@H](C)[C@@H](OC)CN(C)C3=O)cc1 | 12 | 16
16 | CC(C)NC(=O)N[C@@H]1CC[C@@H](CC(=O)N2CCCCC2)O[C@H]1CO | 4 | 5
17 | C[C@H]1CN([C@@H](C)CO)C(=O)Cc2cc(NC(=O)Cn3cnnn3)ccc2O[C@H]1CN(C)Cc1ccc(C(=O)O)cc1 | -6 | -3
18 | C[C@@H]1CCCCO[C@H](CN(C)S(=O)(=O)c2cn(C)cn2)[C@@H](C)CN([C@@H](C)CO)C(=O)c2cc(NC(=O)c3ccncc3)ccc2O1 | 8 | 4
19 | O=C(Cc1ccccn1)N1CCCCN2[C@@H](CO)[C@H](c3ccc(-c4ccc(F)cc4)cc3)[C@@H]2C1 | 7 | 1
20 | C/C=C/c1ccccc1[C@@H]1[C@@H](C#N)N(C(=O)Cc2ccccn2)[C@H]1CO | -12 | -14
21 | CC(=O)N(C)C[C@@H]1Oc2ncc(C#C[C@@H](C)O)cc2C(=O)N([C@@H](C)CO)C[C@@H]1C | 14 | 2
22 | C[C@@H]1CN([C@@H](C)CO)S(=O)(=O)c2ccc(-c3cccc(C(=O)N(C)C)c3)cc2O[C@H]1CN(C)C | 16 | 15
23 | O=C(Nc1cccc(F)c1)N1CC(=O)N2[C@H](C1)[C@H](c1ccc(-c3ccccc3F)cc1)[C@@H]2CO | -30 | -19
24 | N#C[C@H]1[C@@H](c2ccc(C3=CCCCC3)cc2)[C@@H](CO)N1C(=O)NC1CCCC1 | -16 | -7
25 | CO[C@H]1CN(C)C(=O)c2cc(NC(=O)C3CC3)ccc2OC[C@@H](C)N(CC2CCOCC2)C[C@@H]1C | 8 | 13
26 | CCCN(C)C[C@H]1OCCCC[C@@H](C)Oc2ccc(NS(=O)(=O)c3ccc(F)cc3)cc2C(=O)N([C@@H](C)CO)C[C@H]1C | -9 | -5
27 | C[C@H](CO)N1C[C@H](C)[C@H](CN(C)S(C)(=O)=O)Oc2c(NS(C)(=O)=O)cccc2C1=O | 26 | 14
28 | CN(C[C@H]1N[C@H](CO)[C@H]1c1ccc(-c2cccc(F)c2)cc1)S(C)(=O)=O | -6 | 4
29 | C/C=C/c1ccc([C@@H]2[C@@H](CO)N(C(=O)COC)[C@@H]2CNC(=O)CC)cc1 | 6 | 9
30 | O=C(C[C@@H]1CC[C@H]2[C@@H](COC[C@H](O)CN2CC2CCCCC2)O1)NCc1ccc(F)cc1 | 4 | 10
31 | C[C@@H]1CN([C@H](C)CO)C(=O)Cc2cc(NS(=O)(=O)c3ccc(Cl)cc3)ccc2O[C@H]1CN(C)CC1CCCCC1 | ? | .
32 | O=C(Nc1ccc(Cl)c(Cl)c1)N[C@@H]1CC[C@H](CCn2cc(C3CCCC3)nn2)O[C@H]1CO | 4 | 14
33 | COc1ccc([Si](C)(C)[C@H]2[C@H](CCO)O[C@@]3(C(=O)N(Cc4cccc(N5CCOC5=O)c4)c4ccccc43)[C@@H]2C)cc1 | ? | .
34 | C[C@H]1CN([C@@H](C)CO)C(=O)c2cc(C#CCN(C)C)cnc2O[C@@H]1CN(C)C(=O)Nc1cccc(F)c1 | 11 | 4
35 | N#C[C@H]1[C@@H](c2ccc(-c3ccc(F)cc3)cc2)[C@H](CO)N1C(=O)Cc1ccccc1 | -25 | -13
36 | CS(=O)(=O)Nc1ccc2c(c1)[C@@H]1C[C@H](CC(=O)N3CCOCC3)O[C@@H](CO)[C@@H]1O2 | 15 | 16
37 | CN1c2ccc(-c3cccc(C#N)c3)cc2[C@H]2[C@H](CCN2C(=O)C2CCCCC2)[C@H]1CO | ? | .
38 | COC(=O)C[C@@H]1CC[C@@H]2NC[C@@H](O)COC[C@H]2O1 | 3 | 9
39 | C[C@H]1CN([C@@H](C)CO)S(=O)(=O)c2ccc(Br)cc2O[C@@H]1CN(C)S(=O)(=O)c1ccccc1 | ? | -18
40 | CCCC(=O)Nc1ccc2c(c1)C(=O)N(C)C[C@@H](OC)[C@H](C)CN(Cc1ccc(-c3ccccn3)cc1)[C@H](C)CO2 | -4 | -2
41 | O=C(C[C@H]1C[C@@H]2c3cc(NC(=O)c4cccnc4)ccc3O[C@@H]2[C@H](CO)O1)NC1CCCC1 | -5 | -4
42 | CN1C(=O)c2cc(NC(=O)C3CCOCC3)ccc2OC[C@@H]2O[C@H](CC(=O)NCC3CCCCC3)CC[C@@H]21 | 2 | -5
43 | CC(=O)N(C)C[C@@H]1Oc2cc(C#Cc3ccccc3F)ccc2S(=O)(=O)N([C@@H](C)CO)C[C@H]1C | -35 | -24
44 | C[C@H](CO)N1C[C@H](C)[C@@H](CN(C)C)Oc2cc(/C=C/c3ccccc3)ccc2S1(=O)=O | 17 | 4
45 | O=C(c1ccncc1)N1C[C@@H]2[C@H](c3ccccc31)[C@@H](CO)N2C(=O)Nc1ccc(F)cc1 | 5 | -1
46 | Cc1ccc(-c2ccc3c(c2)O[C@@H](CN(C)S(C)(=O)=O)[C@@H](C)CN([C@@H](C)CO)S3(=O)=O)cc1 | -26 | -30
47 | Cn1cnc(S(=O)(=O)N2CCCCN3[C@H](C2)[C@@H](c2ccc(-c4ccc(F)cc4)cc2)[C@@H]3CO)c1 | -3 | -14
48 | O=C(C1CCC1)N1CCCCN2[C@H](C1)[C@H](c1ccc(C#CC3CCCC3)cc1)[C@@H]2CO | ? | .
49 | COc1ccc(S(=O)(=O)Nc2cccc3c2O[C@@H](CN(C)S(=O)(=O)c2ccc(Cl)cc2)[C@H](C)CN([C@H](C)CO)C3=O)cc1 | 22 | 15
50 | CCCC(=O)Nc1ccc2c(c1)C(=O)N(C)[C@@H]1CC[C@H](CC(=O)NCC3CC3)O[C@@H]1CO2 | 14 | 10
51 | O=C(Cc1ccccc1)N1C[C@H]2[C@@H](c3ccccc31)[C@@H](CO)N2C(=O)C1CC1 | 1 | 11
52 | O=C(C[C@@H]1CC[C@@H]2[C@H](COC[C@@H](O)CN2C(=O)Nc2cc(Cl)cc(Cl)c2)O1)N1CCOCC1 | -27 | -12
53 | COc1ccc(S(=O)(=O)N(C)C[C@H]2OCCCC[C@H](C)Oc3ccc(NC(=O)C4CCCCC4)cc3C(=O)N([C@H](C)CO)C[C@H]2C)cc1 | -5 | 0
54 | Cc1noc(C)c1S(=O)(=O)N(C)C[C@@H]1Oc2c(NS(C)(=O)=O)cccc2C(=O)N([C@@H](C)CO)C[C@H]1C | 13 | 9
55 | C[C@@H]1CN([C@H](C)CO)C(=O)c2cc(C#Cc3cccnc3)cnc2O[C@H]1CN(C)S(=O)(=O)c1ccccc1F | -34 | -20
56 | O=C(NCc1nc2ccccc2[nH]1)C1=C[C@@H](c2ccc3c(c2)OCO3)C[C@@H](OCCCCO)O1 | 5 | 2

(cont.)
cpd | SMILES | Vaccinia inh | Vaccinia inh Venus
57 | CO[C@H](CN(C)C(=O)c1ccc2c(c1)OCO2)[C@@H](C)CN([C@@H](C)CO)S(=O)(=O)c1ccccc1 | 5 | 4
58 | C[C@@H]1CCCCO[C@@H](CN(C)C(=O)C2CCCCC2)[C@@H](C)CN([C@@H](C)CO)C(=O)c2cc(NC(=O)Nc3cccc4ccccc34)ccc2O1 | 13 | 6
59 | COc1cccc(-c2ccc([C@H]3[C@H](CO)N4C(=O)CN(C(=O)C5CC5)C[C@@H]34)cc2)c1 | -2 | -3
60 | O=C(NC1CCCC1)N1CCCCN2[C@H](CO)[C@@H](c3ccc(/C=C/c4ccccc4)cc3)[C@@H]2C1 | ? | .
61 | C[C@@H]1CCCCO[C@H](CN(C)C(=O)Nc2ccc3c(c2)OCO3)[C@H](C)CN([C@@H](C)CO)C(=O)c2cc(NC(=O)c3ccncc3)ccc2O1 | 12 | 0
62 | COc1ccc2c3c(n(C)c2c1)[C@@H](CO)N(Cc1cccc(F)c1)CC31CCN(C(=O)Cc2ccccc2)CC1 | -27 | -18
63 | C[C@H](CO)N1C[C@H](C)[C@@H](CN(C)C(=O)c2cnccn2)Oc2ncc(C#Cc3ccccn3)cc2C1=O | 11 | 20
64 | C[C@@H]1CN([C@@H](C)CO)C(=O)c2cc(-c3cncnc3)cnc2O[C@H]1CN(C)Cc1cncnc1 | 7 | 10
65 | C[C@@H]1CN([C@H](C)CO)C(=O)c2cc(NS(C)(=O)=O)ccc2O[C@@H](C)CCCCO[C@@H]1CN(C)S(=O)(=O)c1ccc(Cl)cc1 | 10 | 7
66 | CN(C)C(=O)C[C@@H]1CC[C@@H]2[C@@H](COc3ccc(NC(=O)c4ccc(F)c(F)c4)cc3C(=O)N2C)O1 | 3 | -1
67 | C[C@H]1CN([C@@H](C)CO)C(=O)c2cc(NC(=O)CCC(F)(F)F)ccc2O[C@@H]1CN(C)S(C)(=O)=O | 17 | 11
68 | CCNC(=O)[C@H]1[C@H](CO)[C@H]2Cn3c(ccc(-c4ccccc4)c3=O)[C@H]2N1C(=O)C1CCCC1 | -6 | -3
69 | CC(C)C#Cc1ccc([C@@H]2[C@@H](CO)N3CCCCN(CC4CC4)C[C@@H]23)cc1 | 4 | 0
70 | CO[C@H]1CN(C)C(=O)c2cc(NC(=O)C3CC3)ccc2OC[C@@H](C)N(CC2CCOCC2)C[C@H]1C | 8 | 7
71 | COCC(=O)NC[C@H]1[C@H](c2ccccc2)[C@H](CO)N1C(=O)c1ccccc1 | 10 | 6
72 | CCCC(=O)N1CCC2(CC1)CN(Cc1cccnc1)[C@@H](CO)c1[nH]c3cc(OC)ccc3c12 | -13 | -5
73 | N#Cc1cccc(-c2ccc3c(c2)[C@@H]2[C@@H](CCN2C(=O)c2ccc4c(c2)OCO4)[C@H](CO)N3)c1 | 1 | 1
74 | O=C([C@@H]1N[C@@H]2c3ccc(-c4ccccc4F)c(=O)n3C[C@@H]2[C@H]1CO)N1CCc2ccccc2C1 | ? | .
75 | CNC[C@H]1Oc2cc(C#CC(C)(C)O)ccc2S(=O)(=O)N([C@@H](C)CO)C[C@@H]1C | -8 | -10
76 | CCCNC(=O)N(C)C[C@@H]1Oc2ncc(/C=C/c3ccccc3)cc2C(=O)N([C@H](C)CO)C[C@H]1C | -1 | -3
77 | C[C@H](CO)N1C[C@H](C)[C@H](CN(C)C(=O)c2cccc(F)c2)Oc2ncc(-c3ccncc3)cc2C1=O | 12 | -1
78 | C[C@@H]1CN([C@@H](C)CO)C(=O)c2cc(NC(=O)Cc3ccccc3)ccc2O[C@@H](C)CCCCO[C@H]1CN(C)C(=O)c1ccncc1 | 25 | 7
79 | Cc1noc(C)c1NC(=O)N(C)C[C@H]1OCCCC[C@H](C)Oc2ccc(NS(=O)(=O)c3ccc(Cl)cc3)cc2C(=O)N([C@@H](C)CO)C[C@H]1C | 21 | 2
80 | C[C@@H]1CN([C@@H](C)CO)C(=O)c2cccc(NC(=O)Nc3ccc4c(c3)OCO4)c2O[C@@H]1CN(C)Cc1ccc(C(=O)O)cc1 | 18 | 9
81 | C[C@@H]1CN([C@H](C)CO)C(=O)c2cc(NC(=O)CCC(F)(F)F)ccc2O[C@@H](C)CCCCO[C@@H]1CN(C)C(=O)NC1CCCCC1 | 6 | 6

A portion of the library; the hit share may differ from the screen's.
